MT1-MMP act inh = blockers of MT1-MMP proenzyme processing, primary screen, HT1080 RFP-PRO-GFP cells, GFP/RFP fluorescence | Matrix metalloproteinase-14 (Homo sapiens), P50281 | GFP/RFP ratio fluorescence, overnight; percent of plate control window, DMSO zero | 360,000 tested, 0.061% active | AID 651647, 2012 | GFP/RFP ratio change, % at 20 µM;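 active = GFP/RFP ratio change of at least 30% with cell ATP level not reduced by more than half and red fluorescence within 50% of control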; also: strong numbers were not always called active
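Test system: HT1080 cells expressing an RFP-PRO-GFP fluorescent reporter construct / Compound dosing: single-point 20 µM compound, 1% DMSO / Schedule: cells overnight before dosing, compound overnight, 37 °C, 5% CO2 / Evaluation: GFP/RFP fluorescence ratio / Control set: DMSO and RFP-L50D-GFP cell wells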
PABP polyA inh = PABP poly(A) RNA binding inhibitors, primary screen, biochemical, fluorescence polarization, uHTS | inhibition, % at 35 µM | Polyadenylate-binding protein 1 (Homo sapiens), P11940 | 290,000 tested, 1% active | AID 2014, 2009;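 active = 50% or more with normal probe brightness, or confirmed in later tests; about a fifth of its hits are not listed in these tables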;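 also: calls also rest on retests at 20 µM and on dose response follow-up; controls were probe without protein and protein plus probe with vehicle; some compounds called inactive have numbers as strong as hits; many hits fall short of the cut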
Target sequence (P11940 whole entry, looked up): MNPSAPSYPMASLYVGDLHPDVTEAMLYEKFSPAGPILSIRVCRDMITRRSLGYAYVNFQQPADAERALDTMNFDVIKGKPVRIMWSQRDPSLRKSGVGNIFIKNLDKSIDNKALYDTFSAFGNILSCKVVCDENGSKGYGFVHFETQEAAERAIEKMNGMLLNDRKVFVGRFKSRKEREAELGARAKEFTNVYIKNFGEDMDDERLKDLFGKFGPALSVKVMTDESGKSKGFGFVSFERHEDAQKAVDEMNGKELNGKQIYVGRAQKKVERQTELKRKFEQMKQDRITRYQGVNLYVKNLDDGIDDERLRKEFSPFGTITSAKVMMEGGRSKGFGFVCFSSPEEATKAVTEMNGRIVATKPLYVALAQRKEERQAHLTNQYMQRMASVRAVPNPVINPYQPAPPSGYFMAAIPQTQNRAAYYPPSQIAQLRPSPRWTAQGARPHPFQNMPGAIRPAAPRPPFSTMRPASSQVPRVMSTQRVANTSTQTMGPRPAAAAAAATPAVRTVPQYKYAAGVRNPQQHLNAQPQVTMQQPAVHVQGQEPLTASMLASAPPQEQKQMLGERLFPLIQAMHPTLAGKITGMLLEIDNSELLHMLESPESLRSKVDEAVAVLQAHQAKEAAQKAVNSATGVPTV
Rce1 inhib = yeast Rce1p protease inhibitors, primary screen, biochemical, fluorescence, cell-free homogeneous; CAAX prenyl protease 2 (Saccharomyces cerevisiae (strain ATCC 204508 / S288c)), Q03530; yeast membranes, quenched prenylated peptide cleavage fluorescence; 290,000 tested, 0.27% active; calls only;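 active = fall in fluorescence gain of 50% or more versus controls, with final raw signal at or below 3038400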;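 also: plate controls were neutral control wells for no effect and wells lacking membranes for full effect; tested at 10 µM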
CSC inhib = cancer stem cell viability inhibitors, primary screen, luminescence; cancer stem cell-like cells viability; inhibition, % at 7.5 µM; 300,000 tested, 1.1% active;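 active = mean at 75% or more and at least half the replicates too; tested in HMLE shEcad cells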;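 also: 0% = median of negative and 100% = median of positive control wells; the first replicate is given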
UUG fidelity = modulators of yeast start codon fidelity, primary screen, whole organism, S. cerevisiae, single point, plate reader | S. cerevisiae UUG-firefly luciferase reporter, luminescence/redox ratio | activity score, % at 18.7 µM | 350,000 tested, 0.13% active;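 active = replicate mean at a twofold rise or more, about +100% in these data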;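 also: firefly luciferase made from a UUG start codon reports start codon fidelity; reporter light over untreated wells divided by growth signal over untreated wells; some hits fall short of that in this replicate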
Env fusion inh = inhibitors of HIV-1 Env-driven cell-cell fusion, primary screen, HeLa-JRFL effector, CEM21 target cells, luciferase; inhibition, % at 12.3 µM; 360,000 tested, 1.1% active; AID 651610, 2012;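 active = mean replicate inhibition score of at least 50 and every replicate individually at or above 50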;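 also: 0% = plate neutral controls and 100% = maraviroc near 300 nM; one replicate is shown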
eIF4H FP inh = human eIF4H binding inhibitors, primary screen, translation initiation inhibitor project, biochemical, uHTS, fluorescence polarization | eIF4H fluorescence polarization binding assay | inhibition, % at 35 µM | 290,000 tested, 0.94% active | AID 2012, 2009;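 active = 50% or more with normal probe brightness, or confirmed in later tests; about a fifth of its hits are not listed in these tables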;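 also: calls also rest on retests at 20 µM and on dose response follow-up; 0% = protein and probe with vehicle and 100% = probe without protein; strong numbers were not always called active; many hits fall short of the cut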
eIF4H FP inh retest = recorded beside eIF4H FP inh, whose call it bears; inhibition, %; compound at 20 µM; confirmation average;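 mean of two retest wells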
PABP polyA inh retest = recorded beside PABP polyA inh, whose call it bears; inhibition, %; compound at 20 µM; confirmation repeats;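 mean of two retest wells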
MT1-MMP act inh RFP = further read-out of MT1-MMP act inh, marked with its call; RFP signal change, %; measured here: RFP expression control read;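 0 = vehicle wells; hits needed this value within 50% of zero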
* marks the source's active call; other numbers are inactive results; i = inactive; x = not tested or not shown; + = active, no number.

Preview (3 entries):
SMILES | MT1-MMP act inh | MT1-MMP act inh RFP | PABP polyA inh | Rce1 inhib | CSC inhib | UUG fidelity | Env fusion inh | eIF4H FP inh | others
Cc1cc(C)n(-c2nc3ccccc3c(=O)n2OCC(C)C)n1 | 0.3 | -1.5 | 1.5 | i | -9.9 | -34.5 | 6.0 | 3.6
Cc1ccc(-c2cc(C(=O)O)n[nH]2)s1 | -1.7 | -1.3 | 8.6 | i | -7.6 | x | 7.6 | 0.0
CN1C(C(=O)Nc2ccc(F)cc2F)=CC(c2cccs2)=NS1(=O)=O | 8.7 | -1.7 | -4.1 | i | x | -3.8 | 3.0 | -6.2

Results, repeating the preview:
SMILES | MT1-MMP act inh | MT1-MMP act inh RFP | PABP polyA inh | Rce1 inhib | CSC inhib | UUG fidelity | Env fusion inh | eIF4H FP inh | others
Cc1cc(C)n(-c2nc3ccccc3c(=O)n2OCC(C)C)n1 | 0.3 | -1.5 | 1.5 | i | -9.9 | -34.5 | 6.0 | 3.6
Cc1ccc(-c2cc(C(=O)O)n[nH]2)s1 | -1.7 | -1.3 | 8.6 | i | -7.6 | x | 7.6 | 0.0
CN1C(C(=O)Nc2ccc(F)cc2F)=CC(c2cccs2)=NS1(=O)=O | 8.7 | -1.7 | -4.1 | i | x | -3.8 | 3.0 | -6.2
O=C(NCCc1ccccc1Cl)C1CCC(=O)N(Cc2cccc(C(F)(F)F)c2)C1 (stereo unspecified) | -1.0 | 1.3 | -13.6 | i | -5.6 | -1.7 | 24.2 | 4.5
CC1Sc2ccc(S(=O)(=O)N(C)Cc3ccccc3)cc2NC1=O (stereo unspecified) | 3.1 | -5.2 | 1.9 | i | -19.5 | -2.3 | 1.6 | -15.2
COc1ccc(S(=O)(=O)N2CCN(C(=O)c3cc4c(s3)CCC4)CC2)cc1 | 1.0 | -6.1 | x | x | -2.6 | -7.8 | -3.4 | x
Cc1ccc2nc(-c3ccc(Cl)cc3)c(Cc3ccccc3C(F)(F)F)n2c1 | 0.4 | 2.0 | x | x | x | -8.5 | -10.4 | x
O=C(OCn1nnc2ccccc2c1=O)c1ccc2ncsc2c1 | -8.4 | -4.7 | -8.9 | i | -6.9 | -6.4 | -57.5 | 3.2
N#CC(C(=O)c1ccc(S(=O)(=O)N2CCCCCC2)cc1)c1nc2ccccc2[nH]1 (stereo unspecified) | 4.3 | -6.6 | 3.5 | i | 19.3 | -18.5 | x | 3.9
CCn1c(SCC(=O)NCCc2ccccc2)nc2sc3c(c2c1=O)CCN(C)C3 | -11.7 | -5.4 | 19.5 | i | 15.3 | -15.3 | 10.0 | 11.5
CS(=O)(=O)N(CCc1ccccc1)CC(=O)NCc1ccccn1 | 3.0 | 5.3 | -0.1 | i | -8.0 | x | x | -7.1
CC(=O)c1ccc(N2C(=NC(=O)CCC3CCCC3)SC3CS(=O)(=O)CC32)cc1 (stereo unspecified) | -1.6 | 7.3 | 9.8 | i | -2.3 | -26.2 | 7.8 | -7.0
Cc1cccc(C)c1N1CCN(c2cc(Cl)nc(N)n2)CC1 | -5.5 | -6.6 | 18.8 | i | 1.9 | 12.6 | 6.8 | 62.2 | eIF4H FP inh retest=23.1;PABP polyA inh retest=32.8
CCOc1ccccc1-n1c(SCC(=O)NC2CCCC2)nnc1-c1ccoc1C | -0.2 | 0.6 | 6.2 | i | x | -9.1 | x | -13.2
Cc1cc(N)c(C)c([N+](=O)[O-])c1C | 2.2 | 4.5 | 7.3 | i | -0.1 | x | -14.8 | 3.5
COc1ccc(-c2csc(NC(=O)c3cc(C)oc3C)n2)cc1OC | -13.9 | -3.7 | -3.1 | i | 13.7 | -17.0 | 36.7 | -9.7
CCN(CCS(=O)(=O)c1ccc(Br)cc1)Cc1nc2ccccc2c(=O)[nH]1 | -5.9 | -2.3 | x | x | 23.6 | -13.2 | 5.9 | x
N#Cc1cc2cc3c(cc2nc1N1CCOCC1)OCO3 | 6.9 | 7.6 | 24.9 | i | 1.1 | -5.6 | x | 10.8
Cc1ccc2c(Cl)cc(Cl)c(OCC(=O)Nc3cccc(S(N)(=O)=O)c3)c2n1 | -4.7 | -3.8 | -7.6 | i | 1.2 | x | -34.7 | -3.4
O=C(COC(=O)CNC(=O)c1ccccc1)NCCc1ccccc1 | -4.1 | 0.1 | -2.1 | i | 6.3 | x | 1.2 | -1.2
O=C1Cc2cc(S(=O)(=O)NCc3ccc(F)cc3)ccc2N1 | -2.3 | -0.9 | x | x | -7.2 | x | -2.7 | x
N#C/C(=C\c1cccs1)C(=O)NCC1CCCO1 (stereo unspecified) | -18.7 | -35.5 | 1.3 | i | -8.9 | x | -13.4 | -2.4
CC(=O)N1CCC(C(=O)Nc2ccccc2)(N(Cc2ccccc2)C(=O)c2cccnc2)CC1 | 0.1 | 3.0 | -8.2 | i | -11.0 | 0.2 | x | -8.8
COC(=O)c1c(NC(=O)C2=COCCO2)sc(C)c1C | 0.4 | -1.7 | x | i | 11.5 | -7.2 | -13.4 | x
CCOCCCNc1nc(C)nc2c1nnn2Cc1c(F)cccc1Cl | 0.9 | -1.1 | 6.0 | i | -6.1 | x | 7.1 | -2.1
COC(=O)c1sccc1NC(=O)Nc1ccccc1F | -2.7 | -1.9 | 3.9 | i | -4.7 | 1.0 | 18.6 | -4.7
O=C(CCc1ccccc1)N1CCN(c2ccccn2)CC1 | -1.0 | 2.3 | 8.4 | i | 2.5 | x | x | 3.8
COc1ccc(Cn2c(N)c(S(=O)(=O)c3cccs3)c3nc4ccccc4nc32)cc1 | -3.1 | -0.3 | -2.2 | + | -11.0 | -15.6 | 16.4 | 1.6
O=C(COc1ccc(F)cc1Br)NCc1nnc2ccccn12 | -1.7 | -1.5 | x | x | 12.8 | -9.4 | -5.3 | x
Cn1nc(-c2ccc(Cl)cc2)cc1NC(=O)CCCC(=O)O | 3.6 | 2.5 | -4.1 | i | -6.3 | -4.4 | -2.9 | -9.2
CCNC(=S)NNC(=O)c1cc(-c2ccc(OCC)cc2)nc2ccccc12 | 12.0 | 1.4 | 2.0 | i | 19.6 | -71.0 | x | 8.4
O=C(O)CCc1ccc(-c2ccccc2)n1Cc1ccco1 | -6.8 | 2.0 | 26.9 | i | -7.0 | -8.8 | -22.5 | 16.9
O=C(O)c1cc(S(=O)(=O)N2CCN(S(=O)(=O)c3ccc4ccccc4c3)CC2)ccc1Br | 1.2 | 1.4 | x | x | -15.3 | -10.6 | 5.5 | x
CCCc1cc(=O)[nH]c(SCC(=O)Nc2ccc(C)c(S(=O)(=O)N3CCCCC3)c2)n1 | 7.6 | -6.7 | x | x | -9.9 | -21.3 | x | x
CC(C)(C)c1ccccc1NC(=O)N1CCNC(=O)C1CC(=O)Nc1ccc(F)cc1 (stereo unspecified) | 2.0 | 5.6 | 3.3 | i | 6.9 | -2.2 | -13.2 | 3.3
Nc1nccnc1C(=O)OCC(=O)NC1CCCc2ccccc21 (stereo unspecified) | -7.0 | 1.1 | x | x | x | -5.2 | 1.3 | x
CCOC(=O)CC1C(=O)NCCN1S(=O)(=O)c1ccccc1Cl (stereo unspecified) | 0.4 | 3.0 | -3.6 | x | 8.5 | -17.1 | -46.7 | 3.5
COc1ccc(OC)c(CCNC(=O)C(=O)Nc2ccc3nc4n(c(=O)c3c2)CCCCC4)c1 | 6.8 | -7.4 | 6.6 | i | x | -7.9 | 10.6 | 9.3
Cn1c(C2CCCCC2)nc2ccccc21 | 2.3 | 6.6 | 8.4 | i | 32.2 | 2.8 | -4.6 | 0.0
CCC(NC(=O)c1ccccc1NC(=O)C(C)(C)C)C(=O)N1CC(C)OC(C)C1 (stereo unspecified) | 5.1 | 2.5 | x | x | 0.2 | -1.9 | 1.3 | x
COc1ccc(CNC(=O)C[C@H]2C[C@H](C(=O)N3CCCCC3)[C@@]3(C)c4[nH]c5ccc(Cl)cc5c4CCN3C2=O)cc1OC | -7.8 | -15.1 | x | x | x | 21.6 | -0.9 | x
O=c1c2ccccc2nc2n1CCS2 | -0.4 | 1.9 | 6.3 | i | -0.1 | -12.8 | 1.4 | -1.2
N#C/C(=C/c1ccc(Sc2nc3ccccc3[nH]2)o1)c1cccc(F)c1 | -5.9 | -19.7 | 9.1 | i | 54.5 | -3.7 | 87.3* | 10.3
CCC(C)n1c(C)cc(=O)n1C(C)CC (stereo unspecified) | 3.6 | 1.0 | x | x | x | -10.5 | 8.7 | x
COCCNC(=O)c1cccc2c1C(=O)c1ccc(N3CCOCC3)cc1S2(=O)=O | -5.5 | 1.7 | x | x | x | -9.3 | -20.6 | x
CN(CCOc1ccccc1)C(=O)c1cc(S(=O)(=O)N2CCOCC2)ccc1Cl | 3.5 | -3.3 | x | i | -7.0 | -5.9 | 6.4 | x
Cc1ccccc1S(=O)(=O)N1[C@@H](c2cccc(Cl)c2)C(C(=O)O)=CC[C@H]1c1ccc(Cl)cc1 | -2.4 | 0.8 | x | x | 1.4 | 17.7 | 10.6 | x
CC(C)CN(C(=O)COC(=O)CSc1ccc([N+](=O)[O-])cc1)C1CCS(=O)(=O)C1 (stereo unspecified) | -1.2 | 1.3 | x | i | -5.5 | 1.7 | 2.3 | x
O=C(Nc1cccc(S(=O)(=O)N2CCCC2)c1)C1CCCN1C(=O)c1cccs1 (stereo unspecified) | -1.5 | -1.1 | 7.5 | i | 5.7 | x | 15.1 | 1.1
Cc1ccc2cc(CN(CCN(C)C)C(=O)Nc3ccc(Cl)cc3)c(=O)[nH]c2c1 | 2.5 | -4.3 | -11.5 | i | 16.7 | x | -5.2 | -6.7

Remaining list, next part.
SMILES | MT1-MMP act inh | MT1-MMP act inh RFP | PABP polyA inh | Rce1 inhib | CSC inhib | UUG fidelity | Env fusion inh | eIF4H FP inh | others
CC(=O)c1ccc(OCC(=O)Nc2ccc3c(c2)CCC3)cc1 | 1.8 | 2.3 | -14.3 | i | -1.3 | x | 12.2 | -10.4
Cc1nc2c3ccccc3nc(NNC(=O)CCC(=O)NC3CCCC3)n2n1 | 2.0 | 6.0 | -8.8 | i | -15.8 | x | 5.3 | -1.3
C#CCOc1ccc(Br)cc1C(c1c(C)[nH][nH]c1=O)c1c(C)[nH][nH]c1=O | -3.1 | 0.5 | -8.4 | i | 9.1 | -23.8 | 10.5 | -0.6
O=c1[nH]c(SCc2ccc(Cl)cc2)nc2[nH]ncc12 | 3.8 | -1.9 | 0.4 | i | 25.2 | x | -15.6 | -5.3
Cc1c2c(nc3nnnn13)CCCC2 | -6.3 | 3.5 | 0.1 | i | -11.4 | 10.2 | -8.5 | -5.9
Cc1cc(C(=O)NNC(=O)c2cccc(C(F)(F)F)c2)no1 | 0.4 | 4.4 | 11.6 | i | -13.7 | x | 3.9 | 0.2
O=C1Nc2ccc(S(=O)(=O)N3CCCC3)c3cccc1c23 | -0.5 | 1.8 | 15.4 | i | -15.1 | x | x | -4.8
O=C(CN1C(=O)NC2(CCCCC2)C1=O)Nc1ccc(Cl)c(S(=O)(=O)N2CCOCC2)c1 | 8.5 | -1.6 | x | x | 3.0 | -7.0 | x | x
CCSc1nnc(NC(=O)CSc2nnc(-c3c[nH]c4ccccc34)n2C)s1 | 5.8 | -1.1 | -2.1 | i | -1.2 | -31.5 | 18.7 | -14.5
COCCNC(=S)NN=C1CCCCC1 | -1.5 | -2.1 | 1.0 | i | -9.7 | x | -0.1 | -7.0

Screening data from PubChem BioAssay.

These rows are one share of the data; rates above refer to the full screens.
